Bioassay records as filed in PubChem BioAssay.
PABP polyA inh: blocks human PABP binding to poly(A) RNA | fluorescence polarization | AID 2014 | inhibition, % at 35 µM | 290,000 tested, 1% active | P11940;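 active means 50% or more with normal probe brightness, or confirmed in later tests; inconclusive means above 50% with abnormal brightness, or retests that disagree; inactive means below 50% or failed in later tests; about a fifth of its hits are not listed in these tables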;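 further: calls also rest on retests at 20 µM and on dose response follow-up; controls were probe without protein and protein plus probe with vehicle; some compounds called inactive have numbers as strong as hits; many hits fall short of the cut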
Target sequence (P11940 whole entry, looked up): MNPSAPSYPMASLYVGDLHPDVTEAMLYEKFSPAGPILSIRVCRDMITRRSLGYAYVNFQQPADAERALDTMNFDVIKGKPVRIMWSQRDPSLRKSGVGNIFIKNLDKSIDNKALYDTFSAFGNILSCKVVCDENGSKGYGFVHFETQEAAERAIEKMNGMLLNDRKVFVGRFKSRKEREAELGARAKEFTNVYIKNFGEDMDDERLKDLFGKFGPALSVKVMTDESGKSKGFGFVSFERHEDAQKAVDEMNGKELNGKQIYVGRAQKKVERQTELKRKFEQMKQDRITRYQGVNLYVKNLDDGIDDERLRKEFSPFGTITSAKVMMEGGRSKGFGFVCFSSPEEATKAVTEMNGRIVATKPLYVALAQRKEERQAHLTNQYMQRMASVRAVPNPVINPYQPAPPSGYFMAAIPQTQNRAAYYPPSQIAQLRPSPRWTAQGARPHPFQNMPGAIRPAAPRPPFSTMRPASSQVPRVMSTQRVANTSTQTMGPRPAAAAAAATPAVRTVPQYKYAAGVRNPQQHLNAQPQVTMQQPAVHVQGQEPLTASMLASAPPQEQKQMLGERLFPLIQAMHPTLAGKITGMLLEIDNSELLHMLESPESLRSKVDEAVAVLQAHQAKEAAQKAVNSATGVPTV
CSC inhib: cancer stem cell inhibition; 300,000 tested, 1.1% active; cancer stem cell-like cells viability, luminescence; inhibition, % at 7.5 µM;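 active means mean at 75% or more and at least half the replicates too; inconclusive means mean and replicates disagree; tested in HMLE shEcad cells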;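 further: 0% = median of negative and 100% = median of positive control wells; the first replicate is given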
Rce1 inhib: blocks yeast Ras-converting enzyme; Q03530; yeast membranes, quenched prenylated peptide cleavage fluorescence; calls only; 290,000 tested, 0.27% active; AID 2563;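 active means fall in fluorescence gain of 50% or more versus controls, with final raw signal at or below 3038400; inconclusive means same 50% fall but final raw signal above 3038400; inactive means fall in fluorescence gain under 50%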;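 further: plate controls were neutral control wells for no effect and wells lacking membranes for full effect; tested at 10 µM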
Target sequence (Q03530 whole entry, looked up): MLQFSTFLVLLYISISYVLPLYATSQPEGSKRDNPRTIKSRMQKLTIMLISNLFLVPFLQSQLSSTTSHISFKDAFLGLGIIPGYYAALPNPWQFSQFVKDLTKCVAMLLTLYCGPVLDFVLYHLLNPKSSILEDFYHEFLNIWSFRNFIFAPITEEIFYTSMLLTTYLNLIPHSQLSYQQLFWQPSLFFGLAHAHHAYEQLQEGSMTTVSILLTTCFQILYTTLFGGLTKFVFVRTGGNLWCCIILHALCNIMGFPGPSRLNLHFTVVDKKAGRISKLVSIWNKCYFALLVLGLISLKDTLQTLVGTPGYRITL
eIF4H inh: inhibitors of RNA binding by human eIF4H. eIF4H fluorescence polarization binding assay. inhibition, % at 35 µM. 290,000 tested, 0.94% active;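 active means 50% or more with normal probe brightness, or confirmed in later tests; inconclusive means above 50% with abnormal brightness, or retests that disagree; inactive means below 50% or failed in later tests; about a fifth of its hits are not listed in these tables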;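 further: calls also rest on retests at 20 µM and on dose response follow-up; 0% = protein and probe with vehicle and 100% = probe without protein; strong numbers were not always called active; many hits fall short of the cut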
Env fusion inh: HIV envelope-mediated fusion inhibition; HeLa-JRFL Env/CEM21 cell fusion, luciferase; inhibition, % at 12.3 µM; 360,000 tested, 1.1% active;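 active means mean replicate inhibition score of at least 50 and every replicate individually at or above 50; inconclusive means only one of the two criteria met; inactive means mean below 50 and not all replicates reaching 50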;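 further: 0% = plate neutral controls and 100% = maraviroc near 300 nM; one replicate is shown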
Yeast UUG start: modulators of start codon recognition fidelity in yeast; S. cerevisiae UUG-firefly luciferase reporter, luminescence/redox ratio; activity score, % at 18.7 µM; 350,000 tested, 0.13% active;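 active means replicate mean at a twofold rise or more, about +100% in these data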;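 further: firefly luciferase made from a UUG start codon reports start codon fidelity; reporter light over untreated wells divided by growth signal over untreated wells; some hits fall short of that in this replicate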
MT1-MMP act inh: inhibitors of human MT1-MMP activation. 360,000 tested, 0.061% active. HT1080 RFP-PRO-GFP cells, GFP/RFP ratio fluorescence, overnight; percent of plate control window, DMSO zero. P50281. GFP/RFP ratio change, % at 20 µM;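 active means GFP/RFP ratio change of at least 30% with cell ATP level not reduced by more than half and red fluorescence within 50% of control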; further: strong numbers were not always called active
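Test system: HT1080 RFP-PRO-GFP cells; Benchmarks: DMSO and RFP-L50D-GFP cell wells; Timing: cells overnight before dosing, compound overnight, 37 °C, 5% CO2; Compound: one 20 µM compound dose with 1% DMSO; Read-out: GFP/RFP fluorescence ratio.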
eIF4H inh retest: also measured in eIF4H inh; calls as there; inhibition, %; compound at 20 µM; confirmation average;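 mean of two retest wells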
PABP polyA inh retest: also measured in PABP polyA inh; calls as there; inhibition, %; compound at 20 µM; confirmation repeats;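 mean of two retest wells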
MT1-MMP act inh RFP: further read-out of MT1-MMP act inh, marked with its call; RFP signal change, %; measured here: RFP expression control read;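 0 = vehicle wells; hits needed this value within 50% of zero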
* marks the source's active call; other numbers are inactive results; i = inactive; ? = inconclusive; · = no result given; + = active, no number. Rows were taken by chance; about 2.9% have a hit in one of these screens.

SMILES	PABP polyA inh	CSC inhib	Rce1 inhib	eIF4H inh	Env fusion inh	Yeast UUG start	MT1-MMP act inh	MT1-MMP act inh RFP	others
CNC(=S)Nc1ccc([N+](=O)[O-])cc1	-2.2	9.8	·	-1.6	-10.3	·	-1.2	-0.2
CCN(CC)S(=O)(=O)c1ccc(Cl)c(NC(=O)CSc2nnc(-c3cccs3)o2)c1	-19.2	-3.0	i	-15.6	-14.5	8.0	1.2	-1.7
CCCNC(=O)Nc1cc(C)on1	-4.1	-6.1	i	2.5	-51.0	-5.5	·	·
CC(=O)Nc1ccc(N/C(=N\S(=O)(=O)c2ccccc2)c2ccccc2)cc1	8.1	-8.1	i	-9.7	8.8	0.7	-3.7	-0.5
c1ccc(-c2nnc(SCCC3OCCCO3)o2)cc1	-11.8	0.3	·	9.3	-33.9	8.6	0.9	3.9
O=C(Nn1c(C2CCC2)nc2ccccc2c1=O)c1cccs1	-6.1	13.7	i	-3.8	-15.7	-11.1	0.3	2.9
CCN(CC)CCCNC(=O)COc1ccc2oc3c(c2c1)CCCC3	0.4	28.8	i	-1.0	16.0	4.4	-0.2	1.2
C/C(=N\Nc1nc2ccccc2[nH]1)c1cccs1	-4.3	-2.5	i	-0.8	-70.7	-35.8	6.7	-5.0
Cc1ccc(NC(=O)Cc2nc(CSc3nnc(-c4ccc5c(c4)OCO5)o3)cs2)cc1	-1.2	12.9	i	-9.0	-71.9	-21.7	1.7	-0.7
O=c1nc(-c2ccccc2Cl)c2cc(F)ccc2[nH]1	-2.8	-21.8	i	-7.9	-10.9	-19.7	-0.2	-4.0
Cc1noc(C)c1S(=O)(=O)N(C)CC(=O)Nc1ccc(F)cc1	1.1	5.4	i	6.5	·	-4.4	2.0	0.4
O=C(O)c1ccc(CN2C[C@@H](CO)O[C@@H](n3cnc4c(Nc5ccccc5)ncnc43)C2)cc1	·	·	·	·	12.9	-5.0	-2.2	2.8
COC(=O)Nc1ccc(NC(C)=O)cc1	44.5	-11.1	i	-4.4	-40.0	-13.8	-0.9	-1.5
O=C(c1ccco1)N1CCN(C(=O)c2ccc(CS(=O)c3ccc(Br)cc3)o2)CC1 (configuration not stated)	·	·	·	·	-17.0	14.9	-0.9	1.4
CCOC(=O)N1CCN(C(=O)C2CCN(S(=O)(=O)c3cc(Cl)ccc3Cl)CC2)CC1	-1.1	0.4	i	-4.8	9.7	4.8	1.4	0.5
Cc1cc(C)nc(NNS(=O)(=O)c2c(F)cc(F)cc2Br)n1	·	15.9	·	·	·	-22.3	-4.0	1.9
C#CC(CCN1CCCCC1)(OC)c1ccccc1 (configuration not stated)	6.1	-16.5	i	3.4	-0.1	-5.3	6.7	2.8
COc1ccc(NC(=S)Nc2ncccc2C)c(OC)c1	-0.6	·	i	2.6	·	-23.7	-15.7	-6.9
CCOc1ccc(NC(=O)COC(=O)c2c[nH]c3ccccc23)cc1	·	·	·	·	-1.8	-6.5	-1.8	-1.3
CCOc1ccccc1CNC(=O)C1CCCN(c2nn3c(=O)cc(C)nc3s2)C1 (configuration not stated)	3.8	-1.4	i	-1.8	-7.6	-8.5	-0.9	3.3

Reprinted from the part before: 2 compounds, followed by the next part.
SMILES	PABP polyA inh	CSC inhib	Rce1 inhib	eIF4H inh	Env fusion inh	Yeast UUG start	MT1-MMP act inh	MT1-MMP act inh RFP	others
CCOc1ccc(NC(=O)COC(=O)c2c[nH]c3ccccc23)cc1	·	·	·	·	-1.8	-6.5	-1.8	-1.3
CCOc1ccccc1CNC(=O)C1CCCN(c2nn3c(=O)cc(C)nc3s2)C1 (configuration not stated)	3.8	-1.4	i	-1.8	-7.6	-8.5	-0.9	3.3
CC1(C)Cc2nc(-c3ccccc3)n3cnnc3c2CO1	-9.6	-3.0	i	-2.5	·	-10.6	0.5	4.4
COC(=O)C[C@H]1C[C@@H]2c3cc(NS(=O)(=O)c4cccc(OC)c4)ccc3O[C@@H]2[C@@H](CO)O1	·	·	·	·	?	-10.2	3.8	-1.7
CN(C)CC(=O)N1c2ccccc2CCc2ccc(NC(=O)c3ccc(N)cc3)cc21	-6.9	-11.4	i	-4.4	·	4.8	-4.6	-3.2
CC(CC(=O)Nc1ccc2c(c1)OCCO2)c1ccccc1 (configuration not stated)	-4.5	-7.8	i	1.3	9.3	0.2	-2.7	-0.9
Cc1ccc(S(=O)(=O)N2CCCCC2)cc1NC(=O)COC(=O)c1cccc(O)c1	·	·	·	·	-9.5	6.2	0.1	1.2
O=C(NC1CCCCC1)c1cc(N2C(=O)CCC2=O)ccc1Cl	3.0	·	i	0.9	2.9	-0.7	-3.2	-4.7
O=[N+]([O-])c1ccccc1CNCCCCO	·	-9.3	·	·	-5.1	-20.6	0.0	1.5
CCCCOc1ccccc1P(=O)(O)CP(=O)(c1ccccc1)c1ccccc1	5.2	-3.4	i	4.2	·	0.2	1.1	1.1
CNc1cncc(-c2ccc(O)cc2)n1	·	·	·	·	-20.8	-17.4	-2.3	3.3
Cc1nn(C)c(C)c1CN(C)C(=O)c1cnn2c1NC(c1ccccc1)CC2C(F)(F)F (configuration not stated)	-0.2	-12.5	i	5.7	·	1.4	-3.9	-2.2
COc1cccc(/C=N/NC(=O)c2nnn(-c3nonc3N)c2CN(C)c2ccccc2)c1	3.5	-2.6	i	-1.1	-3.0	-5.0	2.9	-1.6
COc1ccc(NC(=O)NCCN2CCc3ccccc3C2)cc1	-11.3	-5.5	i	-13.3	·	-17.3	3.3	-2.3
COc1ccccc1-n1cnnc1SCC(=O)Nc1cccc(S(N)(=O)=O)c1	-6.2	-0.6	i	-14.1	9.2	-21.8	-3.7	-2.4
CCC(C)(C)NC(=O)C(c1ccco1)N(C(=O)Cn1nnc2ccccc21)c1ccc2c(c1)OCO2 (configuration not stated)	-0.8	-10.4	i	0.5	·	-0.9	3.2	1.6
NC(=O)C1(N2CCCCC2)CCN(C(=O)c2ccc(C#CC3(O)CCCCC3)cc2)CC1	-0.4	6.9	i	-3.6	·	14.8	-0.4	-2.0
Cc1ccc(CSc2nnnn2C)cc1	-12.4	-1.2	·	-7.9	-31.5	-14.5	-2.0	2.1
COc1ccccc1NC(=S)N1CCN(c2ncccn2)CC1	5.7	-8.8	i	-8.7	-7.2	-18.8	1.2	4.8
COc1ccc(CCCc2nnc(SCc3nc4ccccc4c(=O)[nH]3)n2C)cc1	4.0	3.5	i	1.2	17.5	·	0.6	1.1
CCn1cc(C(=O)NCc2cccc(F)c2)c(=O)c2cc(F)c(N3CCN(C(=O)c4ccco4)CC3)cc21	0.2	16.8	i	-2.5	·	-3.1	-10.1	-22.4
CCCCOC(=O)C(C)c1c(C)[nH]c(=S)[nH]c1=O (configuration not stated)	-9.0	-7.2	·	2.1	·	-18.9	-1.4	1.7
Nc1nnc(SCc2ccccc2Cl)s1	52.1*	2.6	i	7.2*	·	-17.4	6.6	1.0	eIF4H inh retest=91.0*;PABP polyA inh retest=91.9*
COc1ccc(NS(=O)(=O)c2ccc(C)c(C(=O)NNC(=O)c3ccccc3O)c2)cc1	·	-5.7	i	·	-0.4	0.2	3.7	0.3
COc1ccc(CC2(C)OC(c3ccccc3)=NN2C(C)=O)cc1 (configuration not stated)	-2.6	-6.4	i	3.3	·	·	2.8	-0.4
COC(=O)/C(C#N)=C/c1c(-c2ccccc2)nc2n1CCS2	-4.2	-3.9	i	-8.2	-3.4	·	0.6	-2.8
COc1ccc(OC)c(NC(=O)C2CC(C)=C(C)CC2C(=O)O)c1 (configuration not stated)	0.6	-4.0	i	-5.4	19.5	-4.0	1.0	1.3
Cc1ccc(OCc2cc(C(=O)N(C)CCc3ccccn3)no2)cc1C	5.4	3.1	i	-10.4	-50.6	1.9	3.5	-2.4
O=C(O)CSc1nnc(Nc2ccccc2)n1-c1ccccc1	-0.8	-4.7	i	1.9	-1.9	·	0.7	4.1
COc1ccc(Cl)cc1NC(=O)CN(C)C(=O)c1cc2c(s1)CCCC2	·	·	·	·	16.5	0.4	6.0	-6.7
COc1ccc(Cl)cc1NC(=O)C/C(C)=N/NC(=O)COc1ccc(C)cc1	-0.6	-12.6	i	5.9	-24.3	-6.1	2.8	6.4
CCC(CC)C(=O)Nc1cc(=O)n(C)c(=O)n1C	-5.2	2.1	i	1.3	-1.7	-11.1	4.0	4.5
Cn1c(CO)cnc1S(=O)(=O)Cc1c(Cl)cccc1Cl	-2.7	1.9	i	2.8	11.4	-17.9	2.3	4.6
O=C(O)C(CCC(C(=O)O)c1ccccc1)c1ccccc1 (configuration not stated)	·	·	·	·	3.1	-31.0	-0.1	5.0
CCN(CC(=O)Nc1c(F)cccc1F)C(=O)CN1c2cccc3cccc(c23)S1(=O)=O	·	-4.4	·	·	-6.0	·	-2.9	8.6
Cc1n[nH]c(=S)n1/N=C/c1ccccc1	-2.5	·	i	2.8	i	-10.3	-1.5	3.3
CC(C)(C)n1nnnc1CN(Cc1ccc(F)cc1)Cc1ccco1	9.9	-10.2	i	6.9	-48.9	-24.6	0.5	1.6
CC(=O)NC(c1ccc(Cl)cc1Cl)c1ccc2cccnc2c1O (configuration not stated)	-4.2	-17.9	i	8.4	-18.3	-10.8	13.4	-7.3
O=C(c1ccccc1)N1CCc2[nH]nc(-c3ccccc3)c2C1	-7.0	-19.8	i	-2.9	-6.1	-18.0	0.4	-2.7
Cc1nc(NS(=O)(=O)c2cccs2)c2c3c(sc2n1)CCC3	21.9	-6.6	i	8.0	-6.6	-15.0	4.3	-3.6
O=C(COC(=O)c1ccccc1SCC(=O)N1CCCC1)NC1CCCCC1	·	-8.2	i	·	-9.7	-18.9	-0.1	2.1
CCN1CCN(CC(O)COC(c2ccccc2)c2ccccc2)CC1 (configuration not stated)	0.0	-5.2	i	3.1	-6.0	-18.2	-2.5	1.0
CC(C)NC(=O)N(O)C1N(C(C)C)C(=O)N(Cc2ccc3c(c2)OCO3)C1(C)C (configuration not stated)	-1.4	·	i	-10.5	-5.0	-9.6	1.5	1.2
CC1CCc2cc(F)ccc2N1C(=O)c1ccc2c(c1)OCO2 (configuration not stated)	-1.1	-7.0	i	-2.5	?	-10.5	-2.8	-4.0
Cc1ccc(C(=O)Nc2ccc(C(=O)N/N=C/c3cccnc3)cc2)cc1	-3.9	29.0	i	-5.2	-12.5	-10.5	2.4	1.5
Cc1c(NC(=O)c2ccc(C(=O)Nc3c(C)n(C)n(-c4ccccc4)c3=O)cc2)c(=O)n(-c2ccccc2)n1C	-4.3	-9.5	i	-12.4	-0.2	-15.1	-1.5	-1.9
O=C(Cc1ccccc1)N/N=C/c1ccc(OCC(=O)Nc2ccccc2)cc1	-8.9	-3.0	i	-7.2	-11.4	-17.7	-1.9	-3.6
OCCC1CN(Cc2ccccc2-c2ccco2)CCN1C1CCCC1 (configuration not stated)	-7.7	45.0	i	5.6	-6.1	-10.2	-1.3	2.1
CC(=O)Nc1cc(C(F)(F)F)ccc1Oc1cccc(Br)c1	-1.6	15.0	+	2.1	·	-3.0	-1.7	-3.6
Cn1c(Cn2cnc([N+](=O)[O-])n2)nnc1SCC(=O)Nc1cccc(Cl)c1	5.4	-5.5	i	9.1	24.5	-15.4	2.6	0.5
O=C(Cn1cc([N+](=O)[O-])cn1)N1CCN(Cc2ccc3c(c2)OCO3)CC1	1.4	-5.0	·	-6.1	-16.3	-6.6	0.1	-5.5
O=C(NNC(=O)c1ccccc1Cl)c1ccc2c(c1)OCCO2	·	0.7	·	·	·	-3.9	2.1	1.0
Cc1ccc(S(=O)(=O)N2CCCc3ccccc32)cc1	·	·	·	·	2.3	-0.7	0.6	-1.9
